Ecoli growth: inhibitors of Escherichia coli growth | OD600, 23 h; active compounds read low | OD600 absorbance (test concentration not listed) | 0.21% of 330,000 active | AID 1053175;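 active means OD600 absorbance below the run mean of sample wells minus 3.6 SD, in any replicate, cut at about 0.56 in these data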;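 further: stock transfer was 300 nL into about 60 µL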
rRNA inh HTS: inhibitors of bacterial rRNA selective over humanized ribosomes; AID 720706; E. coli WT GFP vs humanized-ribosome RFP mutants, fluorescence, 24 h; active compounds read low; DMSO median 0, no signal -100; 1.6% of 350,000 active; GFP signal change (wild-type ribosome), % (no concentration beside the values);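 active means significant combined selectivity score with lowered wild-type GFP, culture density cut under 30%, mutant RFP and density less affected; inactive means any of these conditions unmet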; further: one replicate is shown; some compounds called inactive have numbers as strong as hits
FGF22 binding: binders of recombinant human FGF22 by thermal shift | Q9HCT0 | SYPRO orange fluorescence; percent of sucrose octasulfate shift, DMSO zero | calls only at 9.99 µM | 1.5% of 340,000 active | AID 651658;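 active means melting point raised past a set limit in the mean and every replicate; inconclusive means no clear call; three in four hits are not shown here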
Target sequence (Q9HCT0 whole entry, looked up): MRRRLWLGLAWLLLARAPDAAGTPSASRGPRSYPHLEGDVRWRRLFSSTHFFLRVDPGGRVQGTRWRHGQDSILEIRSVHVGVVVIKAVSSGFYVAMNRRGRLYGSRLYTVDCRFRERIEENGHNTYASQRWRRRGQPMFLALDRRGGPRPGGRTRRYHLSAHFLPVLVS
ALR H2O2 inh: blocks human ALR sulfhydryl oxidase activity; P55789; 3.8% of 290,000 active; purified ALR, DTT oxidation, H2O2 HRP-luminol luminescence; inhibition, % (no concentration beside the values);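 active means mean and each replicate at 75% or more; inconclusive means only one of the two met; inactive means neither met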;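 further: stock transfer was 7.5 nL into about 7.5 µL; 0% = neutral wells and 100% = wells with inactivated enzyme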
Target sequence (P55789 whole entry, looked up): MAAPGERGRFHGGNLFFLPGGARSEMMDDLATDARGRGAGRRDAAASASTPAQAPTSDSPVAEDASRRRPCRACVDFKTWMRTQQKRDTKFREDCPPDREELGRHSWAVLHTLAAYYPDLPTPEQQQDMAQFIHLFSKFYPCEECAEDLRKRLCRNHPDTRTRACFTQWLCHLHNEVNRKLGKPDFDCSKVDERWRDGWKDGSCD
HNF4A DNA FP: change in binding of human HNF4 alpha to DNA; P41235; activity change, % at 10 µM; AID 1224865; HNF4a-FITC DNA binding, fluorescence polarization, 1 h; 0.3% of 360,000 active; in the data active means activity change above about 30%, passing the limit was not always enough;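 further: controls were the assay level and a saturating level of protein; the project sought stronger binding though the title names inhibitors; some compounds called inactive have numbers as strong as hits; positive values seem to mean higher polarization but the record does not say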
Target sequence (P41235 whole entry, looked up): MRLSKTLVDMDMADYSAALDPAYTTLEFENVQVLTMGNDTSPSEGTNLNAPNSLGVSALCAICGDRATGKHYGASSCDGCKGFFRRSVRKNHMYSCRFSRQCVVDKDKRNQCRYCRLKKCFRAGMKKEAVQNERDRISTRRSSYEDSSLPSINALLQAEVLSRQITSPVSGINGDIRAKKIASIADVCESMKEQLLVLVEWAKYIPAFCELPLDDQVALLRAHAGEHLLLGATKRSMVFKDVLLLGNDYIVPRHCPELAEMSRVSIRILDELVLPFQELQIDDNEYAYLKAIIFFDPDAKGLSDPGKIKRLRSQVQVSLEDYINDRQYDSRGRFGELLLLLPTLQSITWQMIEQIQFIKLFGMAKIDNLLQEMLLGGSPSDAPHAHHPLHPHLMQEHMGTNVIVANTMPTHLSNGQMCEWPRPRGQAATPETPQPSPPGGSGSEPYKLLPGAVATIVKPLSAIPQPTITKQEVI
MLL AF4-AF9 inh: blocks AF4 peptide binding to human AF9 | P42568 | AlphaScreen, biotin-AF4 peptide binding to FLAG-AF9 | inhibition, % at 10 µM | 0.47% of 350,000 active;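 active means every replicate reaching a set inhibition limit, whatever the replicate mean, cut at about 25% in these data; inconclusive means mean inhibition reaches that limit but some replicates miss it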;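 further: 0% = plate neutral control median and 100% = total signal loss; the record names both 10 and 1 µM as test concentration; the first replicate is given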
Vif TR-FRET: inhibitors of Vif binding to APOBEC3G peptide, primary screen, biochemical, TR-FRET, GST-Vif 1-94, biotin-A3G peptide, dose response retest (AID 1117319); one-dose inhibition, %; IC50 in µM for titrated hits; 0.57% of 260,000 active; TR-FRET GST-Vif / biotin-A3G peptide binding; higher % means a stronger effect; test concentration not given here; strong numbers were not always called active;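 active means above the screen mean plus three standard deviations and confirmed in dose response; inconclusive means results disagree or hit not tested in dose response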;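 further: Vif residues 1-94 fused to GST binding biotinylated APOBEC3G peptide 110-148; 0% = full assay without inhibitor and 100% = GST in place of GST-Vif; retest series ran down from 100 µM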
rRNA inh HTS OD600: recorded beside rRNA inh HTS, whose call it bears; OD600 change, %; measured here: OD600 growth;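 optical density of the mix in the first replicate; 0 = DMSO median and -100 = no signal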
rRNA inh HTS RFP: second read-out of rRNA inh HTS, no call of its own (marks repeat the call); RFP signal change, %; measured here: RFP humanized mutant strains;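 first replicate; 0 = DMSO median and -100 = no signal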
Numbers without * were called inactive; i = inactive; ? = inconclusive; . = no result given; & = joins results of further samples. An excerpt. The share of hits here may be higher or lower than overall.

SMILES	Ecoli growth	rRNA inh HTS	rRNA inh HTS OD600	rRNA inh HTS RFP	FGF22 binding	ALR H2O2 inh	HNF4A DNA FP	MLL AF4-AF9 inh	Vif TR-FRET
COc1ccccc1N(CC(=O)NC1CCCCC1)S(C)(=O)=O	0.67	.	.	.	.	4	1.4	.	0%
Cn1cc(C(=O)Nc2cccc(F)c2)cn1	0.72	.	.	.	.	-15	-1.9	.	-6%
C[C@@H]1CN([C@H](C)CO)S(=O)(=O)c2ccc(C#CCN(C)C)cc2O[C@@H]1CN(C)C	.	6	1	-0.2	i	.	.	-1.1	.
Cn1c(O)c(N=NC(=N)N)c2ccccc21	0.67	15	7	-0.8	i	-7	-0.1	4.7	7%
C[C@@H]1CCCCO[C@H](CN(C)C(=O)Cc2ccccc2)[C@H](C)CN([C@@H](C)CO)C(=O)c2cc(NS(=O)(=O)c3ccc(Cl)cc3)ccc2O1	.	-3	-3	-2.4	i	.	.	-3.0	.
CC(=O)C1=C(C)NC(=O)NC1c1ccc(OC2CCCC2)cc1 (centres undefined)	0.73	.	.	.	.	10	11	.	10%
C=CCC1CCC/C(=N\NS(=O)(=O)c2ccc(C)cc2)C1 (centres undefined)	.	13	-4	2.9	i	9	1.5	-1.5	.
CN(C(=O)c1cc2c(=O)n3ccccc3nc2n1C)C1CCCCC1	0.69	-5	3	1.4	i	-7	-0.1	-5.7	-4%
CN1CCN(CCCCC(=O)c2ccccc2)CC1	0.77	.	.	.	.	.	0.0	.	15%
O=C(NC1CCN(Cc2ccccc2)CC1)c1cccc(S(=O)(=O)Nc2ccc(F)cc2)c1	0.69	6	1	4.7	i	-18	1.0	6.8	-9%
CCc1nonc1NC(=O)COc1cc(C)c(Cl)c(C)c1	0.68	-18	-34	-1.7	i	-5	-0.2	-3.2	-9%
CCCCC12CN3CC(C)(CN(C1)C3c1ccc([N+](=O)[O-])o1)C2=O (centres undefined)	0.69	.	.	.	i	.	-1.4	0.7	11%
O=C(COc1ccc(Br)cc1)NCc1ccccn1	0.64	6	2	-6.1	i	-3	2.0	-1.8	-2%
C[C@H]1CN([C@@H](C)CO)C(=O)Cc2cc(NC(=O)Nc3ccc(C(F)(F)F)cc3)ccc2O[C@H]1CN(C)Cc1ccccc1	.	-11	-28	9.1	i	.	.	-1.3	.
Nc1cc(-c2ccc(Cl)cc2)nn1S(=O)(=O)c1cccc2nsnc12	0.72	-13	-25	-2.1	i	-4	0.2	3.9	2%
O=C(CSc1nnc(-c2ccco2)n1-c1ccccc1)NCCc1ccccc1	0.66	.	.	.	.	0	-1.9	.	19%
CCCCN(C)C(=O)c1sc(=O)n(Cc2ccccc2F)c1C	.	3	4	0.6	i	.	-0.1	-6.1	.
CCOC(=O)C(C)Sc1snnc1C (centres undefined)	0.71	.	.	.	.	-3	2.6	.	-9%
CCCc1cc(=O)[nH]c(SCCCCN2C(=O)c3ccccc3C2=O)n1	0.7	11	12	1.4	i	-16	-0.3	-3.7	1%
C=CCn1c(SCC(=O)Nc2ccccc2F)nc2ccccc2c1=O	0.64	14	7	6.9	i	-10	2.0	-0.2	.
O=C(CS(=O)CC(=O)N(c1ccccc1)C(C(=O)NC1CCCC1)c1cccs1)Nc1ccc(F)cc1 (centres undefined)	.	.	.	.	.	-10	0.1	.	0%
COc1cc2c(cc1OC)C1CCN3C(=O)CCC3N1CC2 (centres undefined)	.	8	19	0.4	i	.	-4.5	-3.9	-9%
FC(F)(F)c1ccc(Oc2ccc3c(C(F)(F)F)cc(C(F)(F)F)nc3n2)cc1	0.71	.	.	.	.	-8	2.8	.	-1%
Cc1ccc(OCC(=O)NC2CCSc3ccccc32)cc1 (centres undefined)	0.71	-7	-35	-2.5	i	-5	1.2	7.2	1%
COc1cccc(CNS(=O)(=O)c2cc(Br)cc3c2N(C(C)=O)C(C)C3)c1 (centres undefined)	0.71	.	.	.	.	0	0.3	.	-2%
SMILES	Ecoli growth	rRNA inh HTS	rRNA inh HTS OD600	rRNA inh HTS RFP	FGF22 binding	ALR H2O2 inh	HNF4A DNA FP	MLL AF4-AF9 inh	Vif TR-FRET
CO[C@H]1CN(C)C(=O)c2ccc(NS(=O)(=O)c3cn(C)cn3)cc2OC[C@H](C)N(Cc2cccc(F)c2)C[C@@H]1C	.	-2	-1	1.6	i	.	.	-2.8	.
O=C(O)C1CCC(CN(Cc2cccc(Br)c2)C(=S)Nc2ccccc2F)CC1 (centres undefined)	0.68	-9	-9	-5.1	.	-9	1.0	-2.1	-14%
CC(C)NC(=O)NC(=O)COc1c(F)c(F)cc(F)c1F	0.64	.	.	.	.	7	-0.5	.	12%
C[C@H](CO)N1C[C@H](C)[C@H](CN(C)C(=O)CN2CCOCC2)Oc2cc(C#Cc3cccc(F)c3)ccc2S1(=O)=O	.	-4	-9	5.3	i	.	.	4.8	.
Cc1ccc(S(=O)(=O)Nc2ccc3c(c2)C(=O)N([C@H](C)CO)C[C@@H](C)[C@@H](CN(C)Cc2ccc(Cl)c(Cl)c2)OCCCC[C@H](C)O3)cc1	.	6	8	0.8	i	.	.	-1.1	.
CCCCCCOC(=O)C[N+](C)(C)CCOC1CC2CCC1(C)C2(C)C (centres undefined)	0.68	.	.	.	.	.	2.4	.	-5%&1%
CCC(=O)N1CC[C@@H]2[C@H](CO)Nc3ccc(-c4ccc(C(=O)N(C)C)cc4)cc3[C@@H]21	.	-5	8	-3.6	i	.	.	-2.9	.
Cc1nc(N2CCN(c3ccccc3)CC2)nc2c1C(=O)CC(c1ccccc1)C2 (centres undefined)	0.72	.	.	.	.	-8	3.0	.	29%
O=C(O)CSc1cccnc1Sc1ccc(Cl)cc1	0.64	-16	-11	-3.7	i	10	4.1	-3.0	.
O=C(Nc1ccc(Cl)cc1C(F)(F)F)c1ccc(Cl)cc1	0.73	.	.	.	.	7	-0.1	.	2%
O=C(NCC1CCCO1)c1ccccc1NS(=O)(=O)c1ccc(F)cc1 (centres undefined)	0.67	4	12	-0.3	i	-4	-0.3	-4.0	-1%
N#Cc1c(N)n[nH]c1CCCN	0.68	17	18	-3.7	i	-2	2.0	0.6	0%
Cc1cc(C)nc(SCNC(=O)c2ccc(Cl)cc2)n1	0.66	.	.	.	.	26	2.7	.	9%
Cc1nc(NC(=O)CSc2nnc(-c3ccc4c(c3)OCO4)o2)c(Cl)cc1Cl	0.66	.	.	.	.	50	-0.9	.	-4%
N#Cc1ccc(-c2ccc([C@H]3[C@@H](CO)N4CCCCN(S(=O)(=O)c5ccccc5)C[C@H]34)cc2)cc1	.	-16	-43	20	i	.	.	2.5	.
C=CCOc1ccn(C)c(=O)n1	0.61	8	11	3.0	i	2	-0.6	-3.5	16%
O=C(c1cccnc1)N1CC(=O)N2[C@@H](CO)[C@@H](c3ccc(-c4ccccc4F)cc3)[C@@H]2C1	.	-1	6	-1.6	i	.	.	2.6	.
Cc1ccc(CN2C(=O)c3ccccc3NC2c2cc(Br)ccc2O)cc1 (centres undefined)	0.66	-8	-33	26	i	-8	-3.9	0.2	-3%
CCCOc1ccc(S(=O)(=O)N2CCCC2)cc1[N+](=O)[O-]	0.66	-1	3	-4.6	i	-1	1.9	-11	?
Cc1cc(NS(=O)(=O)c2ccc(NC(=O)/C=C/c3ccccc3)cc2)no1	0.66	-7	-6	0.1	i	3	4.0	-2.1	.
OC[C@H]1O[C@@H](c2nc(-c3ccc4[nH]ccc4c3)no2)[C@H](O)[C@@H](O)[C@H]1O	.	9	4	0.6	i	.	1.2	-0.8	.
Cc1cc(C)c2nc(N3C(=O)C(O)=C(C(=O)c4ccco4)C3c3ccco3)sc2c1 (centres undefined)	.	6	6	4.3	i	98*	-15	-1.1	.
Cc1nnc(N2CCCC(C(=O)NCc3ccc(OC(C)C)cc3)C2)c2nn(-c3ccccc3)c(C)c12 (centres undefined)	0.66	2	-1	-2.1	i	-3	15	2.5	.
CCOc1ccc2[nH]c(=O)c(CN(Cc3ccccc3)C(=O)N3CCCC3)cc2c1	0.74	.	.	.	.	-1	1.3	.	0%
C[C@@H]1CN([C@H](C)CO)C(=O)c2c(c3ccccc3n2C)-c2ccccc2CO[C@@H]1CN(C)C(=O)Nc1ccc(F)cc1	.	-2	-14	3.3	i	.	.	0.8	.
SMILES	Ecoli growth	rRNA inh HTS	rRNA inh HTS OD600	rRNA inh HTS RFP	FGF22 binding	ALR H2O2 inh	HNF4A DNA FP	MLL AF4-AF9 inh	Vif TR-FRET
Cn1c(-c2ccc(F)cc2)cnc1NCc1cccc([N+](=O)[O-])c1	0.66	2	1	-3.4	i	19	-0.5	7.8	-5%
C=CCc1c(OC)ccc2c1c(S(=O)(=O)c1ccc(C)cc1)cn2COC	0.71	-2	-14	6.7	i	-6	-1.5	-3.0	.
Oc1ccccc1C=Nc1cccc2ccccc12	0.68	2	7	-0.8	i	15	4.4	-3.0	.
COc1cccc(/C=N/Nc2nc(N3CCCC3)nc(N3CCCC3)n2)c1O	.	-18*	-2.2*	1.1*	i	44	-3.2	17	-1%
O=C(c1ccc(CNS(=O)(=O)c2ccc(F)cc2)cc1)N1CCCCCC1	.	2	-8	-1.3	i	.	-3.4	-9.3	3%
CCCC#Cc1cnc2c(c1)C(=O)N([C@@H](C)CO)C[C@@H](C)[C@@H](CN(C)C(=O)NCCC)O2	.	3	10	-1.6	i	.	.	-3.8	.
CO[C@H]1CN(C)C(=O)c2cc(NC(=O)C3CC3)ccc2OC[C@H](C)NC[C@H]1C	.	0	-3	-0.4	i	.	.	-1.8	.

As entered above.
CCCC#Cc1cnc2c(c1)C(=O)N([C@@H](C)CO)C[C@@H](C)[C@@H](CN(C)C(=O)NCCC)O2 in rRNA inh HTS RFP = -1.6
Oc1ccccc1C=Nc1cccc2ccccc12 in rRNA inh HTS = 2

Structural class: the compounds so far with a Cl atom.
SMILES	Ecoli growth	rRNA inh HTS	rRNA inh HTS OD600	rRNA inh HTS RFP	FGF22 binding	ALR H2O2 inh	HNF4A DNA FP	MLL AF4-AF9 inh	Vif TR-FRET
C[C@@H]1CCCCO[C@H](CN(C)C(=O)Cc2ccccc2)[C@H](C)CN([C@@H](C)CO)C(=O)c2cc(NS(=O)(=O)c3ccc(Cl)cc3)ccc2O1	.	-3	-3	-2.4	i	.	.	-3.0	.
CCc1nonc1NC(=O)COc1cc(C)c(Cl)c(C)c1	0.68	-18	-34	-1.7	i	-5	-0.2	-3.2	-9%
Nc1cc(-c2ccc(Cl)cc2)nn1S(=O)(=O)c1cccc2nsnc12	0.72	-13	-25	-2.1	i	-4	0.2	3.9	2%
Cc1ccc(S(=O)(=O)Nc2ccc3c(c2)C(=O)N([C@H](C)CO)C[C@@H](C)[C@@H](CN(C)Cc2ccc(Cl)c(Cl)c2)OCCCC[C@H](C)O3)cc1	.	6	8	0.8	i	.	.	-1.1	.
O=C(O)CSc1cccnc1Sc1ccc(Cl)cc1	0.64	-16	-11	-3.7	i	10	4.1	-3.0	.
O=C(Nc1ccc(Cl)cc1C(F)(F)F)c1ccc(Cl)cc1	0.73	.	.	.	.	7	-0.1	.	2%
Cc1cc(C)nc(SCNC(=O)c2ccc(Cl)cc2)n1	0.66	.	.	.	.	26	2.7	.	9%
Cc1nc(NC(=O)CSc2nnc(-c3ccc4c(c3)OCO4)o2)c(Cl)cc1Cl	0.66	.	.	.	.	50	-0.9	.	-4%
